# Bioassay records from PubChem.
# Autofluor counter: compound fluorescence in toxin protease inhibitor counterscreen; compound autofluorescence counterscreen, microsphere flow cytometry; stronger effect = higher value; fluorescence intensity (no concentration beside the values); 360,000 tested, 3.1% active; AID 624483;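 active = at least 3 SD above the mean of all compounds, about 16000 in these data; inconclusive = too few beads counted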;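 also: 100 nL of 1 mM stock went into each well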
# Sa RN4220 lethal: kills Staphylococcus aureus RN4220. 330,000 tested, 0.33% active. inhibition, % (test concentration not listed). S. aureus RN4220 growth, OD600, 16 h;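 active = z-score of -3 or lower and OD600 up to 0.18 on both plates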;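 also: plate controls were untreated cells for no effect and reference antibiotic for full effect; stock transfer was 100 nL into about 80 µL; one replicate is shown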
# PrP UTR inh: suppresses PrP 5' UTR mRNA reporter expression. 340,000 tested, 0.35% active. cell-based PrP 5' UTR mRNA reporter, plate reader. AID 488862. inhibition, % (no concentration beside the values);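 active = every replicate at 50% or more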;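 also: 0 = median of the neutral control wells; tested in H4 reporter cells; numbers are from one replicate; inactives centre near -14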
# Mtb hypoxia inh: inhibitors of hypoxia-regulated fluorescent reporter in Mycobacterium tuberculosis | M. tuberculosis hypoxia-regulated fluorescent reporter, fluorescence | fluorescence inhibition, % (concentration not given with the values) | 300,000 tested, 0.1% active | AID 1159583;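 active = 35 to 45% if threefold the growth effect, above 45% if 1.5-fold the growth effect; inactive = the rest, general growth blockers included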;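 also: wells of about 50 µL received 100 nL stock; 0% = vehicle wells and 100% = reference inhibitor wells; whole bacteria with a GFP reporter of the hypoxia response; strong numbers were not always called active; many hits fall short of the cut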
# ugtP null kill: kills S. aureus RN4220 lacking UgtP; S. aureus RN4220 ugtP deletion, OD600 growth, 16 h; some inactives read as strong as hits; 330,000 tested, 0.54% active; growth inhibition, % (concentration not given with the values);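 active = z-score under -3 and OD600 up to 0.15 on both plates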;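 also: plate controls were untreated wells for no effect and antibiotic for full effect; wells of about 80 µL received 100 nL stock; the first replicate is given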
# BJeLR lethal: kills HRASV12-expressing BJeLR cells | inhibition, % (no concentration beside the values) | BJeLR (HRASV12) viability, CellTiter-Glo ATP luminescence, 48 h; reference of the scale not given here | AID 1554 | 300,000 tested, 0.17% active;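 active = replicate mean above 50%; inconclusive = above 50% but judged a plate artefact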;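 also: 50 nL library stock added to about 25 µL; numbers are from one replicate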
# Mtb hypoxia inh growth: recorded beside Mtb hypoxia inh, whose call it bears; growth inhibition, %; measured here: M. tuberculosis growth (absorbance);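 0% = vehicle and 100% = reference antibiotic; read after six days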
# Starred values were filed as active, the others as inactive; ? = inconclusive; · = no result given.
SMILES,Autofluor counter,Sa RN4220 lethal,PrP UTR inh,Mtb hypoxia inh,Mtb hypoxia inh growth,ugtP null kill,BJeLR lethal
CCOc1ncccc1C(=O)OCC(=O)NCc1cccs1,4375,2.5,-25.1,19.1,40.5,6.0,·
O=C(COc1ccccc1)c1cn(CC(=O)N2CCCC2)c2ccccc12,3310,5.0,-23.6,4.5,1.1,8.3,-8.8
Nc1nc(-c2ccccc2)cs1,4390,2.7,-9.5,1.5,8.6,4.0,3.5
OCC[C@@H]1C[C@@H](O)[C@H](O)[C@]2(OCCCc3ccccc32)O1,3986,·,-25.6,·,·,·,6.9
Cc1ccccc1NC(=O)NCC1CCN(Cc2cccc(Cl)c2)CC1,4119,2.3,2.1,5.7,4.7,4.7,-1.7
COc1ccccc1CNS(=O)(=O)c1cc(C(=O)N(C)Cc2cccnc2)c(Cl)cc1Cl,2901,7.2,2.8,-4.6,-8.3,1.6,·
CCOc1ccccc1N(CC(=O)NC1CCCCC1)C(=O)c1nsc(Cl)c1Cl,2937,4.0,-8.1,9.2,1.1,0.3,-20.7
COC(=O)Cn1c(=NC(=O)C(C)C)sc2c(C)cc(C)cc21,5691,6.7,-67.7,0.9,4.5,0.5,8.6
CCOCCCN(C)C1CCN(C(=O)c2oc3ccccc3c2NC(=O)Cc2ccc([N+](=O)[O-])cc2)CC1,4261,2.5,-3.6,10.8,3.4,9.2,-5.8
O=C(CCc1ccccn1)N1CCCC(N2CCN(c3cccc(C(F)(F)F)c3)CC2)C1 (configuration not stated),5829,0.9,-10.2,2.9,6.7,0.9,1.2
COc1ccc(CCNC(=O)c2ccc(CS(=O)(=O)c3ccc(Cl)cc3)o2)cc1OC,17952*,-3.1,-37.2,-1.2,-1.7,0.6,-15.2
Cc1ccc2c(c1)C1CN(C)CCC1N2CC(=O)N(C)c1ccccc1 (configuration not stated),9459,3.9,-20.4,1.3,7.0,-0.5,-0.8
COc1ccc(NC(=S)N2CCN(C/C=C/c3ccccc3)CC2)cc1,2111,·,0.6,·,·,·,-5.0
Cc1[nH]c2ccccc2c1SCC(=O)N1CCCCC1,4013,-2.2,-17.2,9.0,4.9,-3.8,4.6
Cc1cc(C)n(/N=C/c2c[nH]c3ccccc23)c(=O)c1C#N,5617,·,-4.1,·,·,·,-5.7
O=C(NCc1ccccn1)Nc1ccccc1C(F)(F)F,·,1.6,-8.2,6.4,-0.5,-3.6,-1.2
COc1ccc2[nH]c(C)c(C(=O)CN3CCN(C/C=C/c4ccccc4)CC3)c2c1,4269,-2.0,-4.2,8.4,30.8,-14.0,0.3
COc1ccc(Cl)cc1NC(=S)N1CCCC1,4294,5.2,-28.4,11.2,5.4,2.7,-13.3
CCn1nc(C)cc1C(=O)N1CCCC(C(=O)c2ccccc2SC)C1 (configuration not stated),5393,1.0,-23.4,3.9,4.3,3.2,3.0
O=C(COC(=O)c1cccs1)c1ccccc1,3036,-10.5,-93.7,9.2,14.1,-2.7,-6.6
COc1ccc(OC)c(NS(=O)(=O)c2ccc(-c3coc(C)n3)cc2)c1,3843,2.1,-8.7,-0.1,-3.2,-0.1,10.8
Cc1ccccc1C(=O)NCCCn1ccnc1,3866,1.2,-28.0,1.1,-3.0,4.2,5.2
CN1CCN(C=NC2=C(C#N)C(c3ccccc3)C3=C(CC(C)(C)CC3=O)O2)CC1 (configuration not stated),·,-2.2,·,-9.6,-11.1,-6.7,·
CCN1CCN(CCNC(=O)Nc2ccc([N+](=O)[O-])cc2)CC1,4362,1.5,-18.1,-3.4,-0.8,-4.7,-5.6
CC(C)Nc1nc(-c2ccccc2)nnc1-c1ccccc1,4379,2.3,-22.6,9.8,11.8,2.2,6.7
COc1cccc(-c2ncc3ccccc3c2COC(=O)c2ccccc2C(=O)O)c1,3645,3.5,-9.7,4.1,9.1,-0.1,·
COc1ccccc1OCCn1nnc2ccccc21,4038,4.0,-44.1,17.0,2.3,8.6,3.3
CCN(CC)C(=O)COc1ccc(/C(C)=N/NC(=O)c2ccccc2-n2cccc2)cc1,6057,·,-9.3,·,·,·,10.8
C=CCNc1c2c(nc3ncnn13)CC(C)CC2 (configuration not stated),4427,4.5,-23.6,-1.1,5.9,12.1,0.5
O=C(CCN1C(=O)/C(=C/c2ccccc2)SC1=S)N1CCCCCC1,5052,2.9,-28.0,25.2,17.6,-8.6,12.9
COCCN(C(=O)CSc1nc2ccc(OC)cc2[nH]1)c1c(N)n(Cc2ccccc2)c(=O)[nH]c1=O,6431,4.9,-2.0,-7.1,-11.3,7.8,-4.5
CCOC(=O)c1sc(=NC(=O)c2ccccc2Br)n(C)c1C,4411,2.8,-156.6,-2.6,-6.9,0.4,-0.1
COC(=O)/C=C1\SC(=NC(=O)c2ccc(C)cc2)NC1=O,4576,9.6,-14.3,17.4,3.0,2.1,2.8
CC1CCN(S(=O)(=O)c2ccc3c(c2)oc(=O)n3C)CC1,3988,2.0,-7.4,3.3,3.6,11.7,-7.3
C[C@@]12CCC=CC1C(c1ccc3ccccc3c1Br)N(Cc1ccccc1)C2=O (some centres not stated),·,-5.4,·,0.1,5.8,2.3,·
COc1cc2cc(Oc3ccc4ccc(=O)oc4c3)c(=O)oc2cc1OC(=O)C=C(C)C,·,-4.5,·,0.6,0.0,-40.6,-3.6
COc1ccc(C[C@](C)(N)C(=O)O)cc1OC,5776,8.7,-91.2,13.4,-0.6,10.5,·
O=C(Nc1nnc(-c2ccccc2Cl)s1)c1ccccc1F,4145,2.9,-20.5,6.6,1.8,-13.5,3.1
Cc1ccc(C(=O)CCC(=O)Nc2cccc(C(F)(F)F)c2)cc1C,3499,2.6,-8.0,2.0,1.6,-14.3,0.0
C=CCn1c(Cc2cccs2)nnc1SCC(=O)Nc1ccc(OC)c(OC)c1,6592,7.3,3.2,0.3,-4.8,13.0,-10.8
COc1ccc(N2CCN(CC(O)COc3c(OC)cccc3OC)CC2)cc1 (configuration not stated),3924,-0.1,-25.0,5.3,5.1,4.3,-13.2
Cc1cccc([C@@H]2[C@@H]3C(=O)N(Cc4ccccc4)C(=O)[C@@H]3[C@]3(CC(C)C)C(=O)N(c4cccc(Cl)c4)C(=O)N23)c1,3766,·,-3.9,·,·,·,17.1
CCCCOc1cccc(C2C(C(=O)c3ccc(C)o3)=C(O)C(=O)N2c2nnc(C)s2)c1 (configuration not stated),6728,18.4,-1.1,6.2,-13.3,15.6,-3.6
CN(C)CCC(=O)N1c2ccccc2Sc2ccc(C(F)(F)F)cc21,3321,3.2,-49.5,5.1,0.5,18.2,1.1
CCOC(=O)CSc1nnc(Cc2ccc(OC)cc2)n1-c1ccccc1,8744,8.3,-16.8,13.4,9.7,-2.3,-2.3
COc1ccc(OC)c(NC(=O)CSc2nc(N)c(-c3ccccc3)c(=O)[nH]2)c1,2597,-8.2,-10.1,1.6,-6.5,-5.4,4.0
Cc1ccc2[nH]c(=O)c(CN(CC3CCCO3)S(=O)(=O)c3cccc4nsnc34)cc2c1 (configuration not stated),9718,5.1,-2.6,2.6,5.1,1.3,-1.8
NS(=O)(=O)c1ccc(-c2ccc(/C=C3\SC(=S)N(C4CCS(=O)(=O)C4)C3=O)o2)cc1 (configuration not stated),4298,·,-9.6,·,·,·,-0.6
CCn1c(Cc2ccccc2)nnc1SCC(=O)NC1CCCC1,3281,8.0,-20.9,8.7,2.0,4.4,14.4
COc1cc(C(=O)NN=C(c2ccccc2)c2ccccn2)cc(OC)c1OC,·,5.0,·,-8.3,21.2,-11.7,·
CN(C(=O)c1cccc(NC(=O)Cc2ccc(NC(=O)C3CCN(C(=O)C4CCCCC4)CC3)cc2)c1)C1CCCCC1,3681,2.2,2.9,-9.2,3.8,0.2,·
CCc1nnc(NC(=O)CSc2nc3ccccc3s2)s1,3429,-1.0,-4.8,2.0,-0.4,-1.9,0.9
COc1ccc(NS(=O)(=O)c2cccc(C(=O)OCC(=O)Nc3cc(C)on3)c2)cc1,3232,2.4,2.4,2.0,1.7,9.0,-1.4
COc1nc(C)cc(C)c1S(=O)(=O)c1ccccc1C,4615,3.4,-3.1,9.0,4.2,0.9,5.2
COc1ccc(N2CCN(C(=O)CSc3ccccc3)CC2)cc1,9808,1.3,-45.8,14.0,10.3,8.4,0.6
COc1ccc(S(=O)(=O)N2CCN(c3nn(C)c(=O)n(C)c3=O)CC2)cc1,8998,2.2,-15.1,-3.1,3.9,7.4,·
CC1(C)OC(=O)C(=NNc2ccc(Cl)cc2)C(=O)O1,22457*,2.2,-50.8,1.7,10.3,-10.1,3.2
FC(F)(F)c1cccc(Cn2nnnc2-c2ccc(Cl)cc2)c1,22919*,5.0,-13.8,11.4,11.0,-10.0,5.6
O=C(CCC(=O)OCC(=O)c1ccc(C(F)(F)F)cc1)OCC(=O)c1ccc(C(F)(F)F)cc1,·,3.3,·,-8.7,-6.4,6.8,-7.1
O=C(CCN1C(=O)COc2ccccc21)N1CCC2(CC1)OCCO2,10118,2.6,-5.6,12.4,7.9,2.6,-1.9
# Going on with the list:
SMILES,Autofluor counter,Sa RN4220 lethal,PrP UTR inh,Mtb hypoxia inh,Mtb hypoxia inh growth,ugtP null kill,BJeLR lethal
O=C1CC(c2ccccc2)SC(N(c2ccccc2)c2ccccc2)=N1 (configuration not stated),1995,8.4,-17.3,7.9,0.9,2.3,4.0
CCc1ccc2[nH]c(=O)c(CN(CCCN3CCOCC3)C(=O)Nc3ccccc3)cc2c1,3417,-8.6,-1.7,6.4,14.6,-5.5,-5.5
CCn1cc(CN2CCc3c([nH]c4ccccc34)C2c2ccc(F)c(OC)c2)c(C)n1 (configuration not stated),3430,6.7,18.3,-13.6,-8.5,4.7,4.1
O=C(NC(=S)Nc1ncccn1)c1ccccc1Br,3101,0.6,-13.9,-1.7,9.0,13.6,5.6
CC(NC(=O)[C@H](C)NC(=O)[C@@H]1CSC2c3ccccc3C(=O)N21)c1ccccc1 (some centres not stated),5667,1.8,-19.4,-2.2,7.6,2.2,-1.8
CC(=O)Nc1ccc(S(=O)(=O)N(C)CC(=O)OCC(=O)N(C)c2ccccc2)cc1,5244,·,-11.3,·,·,·,5.2
O=C(c1cccc(Cl)c1)N1CCN(Cc2ccccc2F)CC1,4456,-1.0,-11.2,10.0,16.0,1.6,3.7
CCOC(=O)C(=O)Nc1cccc(C(=O)OCC)c1,2500,-3.6,-13.0,-1.4,2.7,-6.8,0.4
CC(C)CCNC(=O)[C@@H](NC(=O)c1c(F)cccc1F)C(C)C,?,0.6,-12.7,16.9,2.8,-2.3,-1.9
C=C(C)c1ccccc1,5538,1.6,6.6,7.1,12.5,1.9,·
CCN(C(=O)CSc1nc2cc(Cl)ccc2c(=O)n1Cc1ccco1)C1CCS(=O)(=O)C1 (configuration not stated),2467,1.6,-8.7,-0.3,-3.0,2.6,18.2
Cc1ccc(S(=O)(=O)N(C)CC(=O)Oc2ccc(-c3nnco3)cc2)cc1,5449,3.0,-7.8,2.5,-5.9,4.6,0.8
O=C(O)c1cccc(Oc2ccc([N+](=O)[O-])cc2)c1,11852,9.4,-34.6,5.1,-2.1,0.6,·
COc1ccc(/C=N/NC(=O)c2cc(-c3ccccc3)nc3ccccc23)c(OC)c1,4198,·,-38.0,·,·,·,2.2
Cc1ccc(S(=O)(=O)N2CCCN(S(=O)(=O)c3ccc(C(F)(F)F)cc3)CC2)cc1,11191,5.8,-18.8,3.8,3.2,-4.2,-19.6
